Hedgehog inh: Hedgehog pathway signaling inhibitors, primary screen, luminescence, Shh-LIGHT2 cells, Gli-luciferase; Shh-LIGHT2 Gli-luciferase reporter, 30 h; actives 2.1% (n = 22,000); AID 2313, 2010; inhibition, % (concentration not given with the values);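 active means replicate mean of 65% or more; inconclusive means mean lower but half the replicates past it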;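 further: pathway switched on by Shh-conditioned medium diluted 1 in 25 in low serum; 100 nL library stock added to about 40 µL; 0% = median of neutral wells and 100% = positive control level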
YB-1 expr inh: inhibitors of YB-1 gene expression, primary screen, cell-based, fluorescence; U2OS, qRT-PCR YB-1 vs CDIP delta delta Cp, 16 h; hits give high values; zero = DMSO, each unit about twofold; delta delta Cp (YB-1 minus CDIP) (concentration not given with the values); actives 0.37% (n = 30,000);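 active means delta delta Cp rounded down to an integer at or above 3, about 3 SD of DMSO wells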;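 further: higher means less YB-1 transcript or more CDIP transcript relative to DMSO; stock transfer was 100 nL into about 100 µL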
MITF inh: inhibitors of MITF, primary screen, MITF inhibitor project, cell-based, luminescence. inhibition, % (no concentration beside the values). TRPM1 promoter luciferase, 24 h. actives 0.28% (n = 37,000). AID 2240, 2010;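 active means most replicates at 85% or more, or half of them and the mean; inconclusive means half reach 85% but not the mean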;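 further: human melanocyte line stably carrying TRPM1 promoter luciferase reporter; 0% = vehicle wells and 100% = a positive control; the first replicate is given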
PD-1 reverse act: activators reversing PD-1 mediated T-cell inhibition, primary screen, luminescence, primary human CD4 T cells, PD-L1 beads; CellTiter-Glo 96 h; activation, % (test concentration not listed); 29,000 tested, under 10 active; AID 2316, 2010;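 active means replicate mean of 50% or more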;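 further: 0% = median vehicle wells and 100% = positive control; 100 nL library stock added to about 50 µL; numbers are from one replicate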
An asterisk follows results filed as active; ? = inconclusive; · = not tested or not shown. Not all compounds are listed, so the mix of outcomes need not match the whole.

SMILES	Hedgehog inh	YB-1 expr inh	MITF inh	PD-1 reverse act
C[C@H]1CN([C@@H](C)CO)C(=O)c2cccc(NC(=O)c3ccc(-c4nccs4)cc3)c2O[C@H]1CN(C)C(=O)Nc1ccccc1	-9	-0.17	-9	2.2
Cc1ccc(NC(=S)NC(=O)C23CC4CCC(CC(C4)C2)C3)cc1	-5	-0.17	-13	0.4
C[C@@H]1CN([C@@H](C)CO)C(=O)c2cc(NC(=O)Nc3ccc(F)cc3)ccc2O[C@@H]1CN(C)S(=O)(=O)c1cn(C)cn1	-30	-0.15	-10	1.9
Cc1cc(C)c(OCC(=O)Nc2nnn(C)n2)c(Br)c1	·	·	-9	2.2
CC(C(=O)Nc1cccc2cccnc12)N1C(=O)c2ccccc2C1=O (stereo not drawn)	·	·	1	0.4
CN(CC(=O)N1CCN(c2ccccn2)CC1)S(=O)(=O)c1ccc2ccccc2c1	·	·	3	-1.2
CNC[C@@H]1Oc2ccc(NS(=O)(=O)c3cn(C)cn3)cc2C(=O)N([C@H](C)CO)C[C@H]1C	-12	-0.069	6	0.0
CNC[C@H]1Oc2ccc(NS(=O)(=O)c3ccc(OC)cc3)cc2CC(=O)N([C@H](C)CO)C[C@H]1C	33	-0.49	-9	0.8
C=C(C)C(=O)Nc1ccc2c(c1)C(=O)NC2=O	·	0.045	-11	0.5
COc1ccc(S(=O)(=O)N(C)C[C@@H]2Oc3ccc(NS(=O)(=O)c4ccc(Cl)cc4)cc3C(=O)N([C@@H](C)CO)C[C@H]2C)cc1	·	-0.12	-1	-0.9
C[C@H]1CN([C@@H](C)CO)C(=O)Cc2cc(NC(=O)NC3CCCCC3)ccc2O[C@@H]1CN(C)S(=O)(=O)c1cccs1	24	-0.16	-2	·
C[C@H]1CN([C@@H](C)CO)C(=O)Cc2cc(NC(=O)c3ccncc3)ccc2O[C@H]1CN(C)S(C)(=O)=O	-27	-0.26	-7	0.2
C[C@H]1CN([C@@H](C)CO)C(=O)c2cc(NC(=O)Cc3ccccc3)ccc2O[C@H]1CN(C)Cc1ccccc1	·	-0.17	9	2.0
CC(C)(C)n1nc(C2CC2)cc1NC(=O)Nc1ccccc1	·	-0.9	-21	0.3
CC(=O)c1c(C)oc2ccc(NS(=O)(=O)c3cccc4cccnc34)cc12	·	·	57	-1.9
Cc1ccc(S(=O)(=O)N(C)C[C@@H]2Oc3ccc(NC(=O)Cc4ccccc4)cc3CC(=O)N([C@@H](C)CO)C[C@@H]2C)cc1	42	-0.24	18	1.2
C[C@@H]1CCCCO[C@@H](CN(C)CC2CCCCC2)[C@@H](C)CN([C@H](C)CO)C(=O)c2cc(NS(=O)(=O)c3cn(C)cn3)ccc2O1	3	0.17	-9	3.0
COc1ccc(S(=O)(=O)N(C)CC(=O)Nc2cccc(Cl)c2C)cc1OC	·	·	18	-1.0
C[C@H]1CN([C@@H](C)CO)C(=O)Cc2cc(NC(=O)C3CCCCC3)ccc2O[C@@H]1CN(C)Cc1ccc2c(c1)OCO2	-5	0.18	8	·
COC(=O)c1ccccc1NC(=O)c1ccc(NC(=O)CSc2ccc(Cl)cc2)cc1	·	·	-1	0.4
Cc1ccc(S(=O)(=O)N(C)C[C@H]2Oc3c(NC(=O)C4CC4)cccc3C(=O)N([C@H](C)CO)C[C@@H]2C)cc1	-66	-1.5	3	-7.1
C[C@@H]1CN([C@@H](C)CO)C(=O)Cc2cc(NC(=O)c3ccncc3)ccc2O[C@@H]1CN(C)Cc1ccc(C(=O)Nc2ccccc2N)cc1	·	-0.65	0	0.7
NC(N)=NS(=O)(=O)c1ccc(N=Cc2ccccc2O)cc1	14	0.35	-5	3.6
COc1cc2[nH]c3ccccc3c2cc1C	4	1.3	-26	-0.6
CS(=O)(=O)N(CC(=O)Nc1ccc2ccccc2c1)c1cc(Cl)c(Cl)cc1Cl	·	·	25	1.8

3 entries out of the list, ordered by molecular weight, smallest number first:
SMILES	Hedgehog inh	YB-1 expr inh	MITF inh	PD-1 reverse act
COc1cc2[nH]c3ccccc3c2cc1C	4	1.3	-26	-0.6
CC(C)(C)n1nc(C2CC2)cc1NC(=O)Nc1ccccc1	·	-0.9	-21	0.3
C[C@H]1CN([C@@H](C)CO)C(=O)Cc2cc(NC(=O)NC3CCCCC3)ccc2O[C@@H]1CN(C)S(=O)(=O)c1cccs1	24	-0.16	-2	·

(further entries)
SMILES	Hedgehog inh	YB-1 expr inh	MITF inh	PD-1 reverse act
O=C(CSc1nnc(-c2ccc([N+](=O)[O-])cc2)n1-c1ccccc1)Nc1ccc(F)cc1	·	·	23	-0.7
CC(NS(=O)(=O)c1ccc(C(C)(C)C)cc1)c1ccccc1 (stereo not drawn)	4	-0.17	-17	0.1
COc1ccc(S(=O)(=O)Nc2ccc3c(c2)CC(=O)N([C@@H](C)CO)C[C@H](C)[C@@H](CN(C)C(=O)Nc2ccc4c(c2)OCO4)O3)cc1	·	0.13	-5	1.2
COc1ccc(NC(=O)N(C)C[C@H]2OCCCC[C@@H](C)Oc3ccc(NS(=O)(=O)c4ccc(C)cc4)cc3C(=O)N([C@H](C)CO)C[C@@H]2C)cc1	-6	0.2	-3	1.7
Clc1ccccc1N=C/C=C1\NN=NC1c1ccc(Br)cc1 (stereo not drawn)	-24	-0.2	-27	0.7
C[C@H](CO)N1C[C@H](C)[C@H](CN(C)C(=O)Nc2cccc3ccccc23)Oc2ccc(NC(=O)Cc3cn(C)c4ccccc34)cc2C1=O	-37	-0.46	35	-1.7
CNC[C@@H]1Oc2c(NC(=O)Nc3ccc4c(c3)OCO4)cccc2C(=O)N([C@@H](C)CO)C[C@H]1C	26	0.72	-10	·
Cc1ccc(NC(=O)COc2ccc(C(C)(C)C)cc2)c([N+](=O)[O-])c1	·	·	-59	0.3
C[C@@H]1CN([C@H](C)CO)C(=O)Cc2cc(NS(=O)(=O)c3ccccc3)ccc2O[C@H]1CN(C)C(=O)NC1CCCCC1	9	-0.11	6	·
COC(=O)C1=CO[C@@H](O[C@@H]2O[C@H](CO)[C@@H](O)[C@H](O)[C@H]2O)[C@H]2[C@@H]1C=CC21C=C([C@H](C)OC(=O)/C=C/c2ccc(O)cc2)C(=O)O1 (stereo partly drawn)	-10	-0.12	9	-0.8
C[C@H]1CN([C@@H](C)CO)C(=O)c2cccc(NS(=O)(=O)c3cn(C)cn3)c2O[C@H]1CN(C)Cc1ccc(Oc2ccccc2)cc1	-38	0.049	3	1.1
CC(C)n1cnc2c(NCc3ccccc3O)nc(NCCCO)nc21	6	-0.28	13	0.4
COC(=O)c1ccc(Cl)c(NC(=O)CN(c2cccc(Cl)c2)S(C)(=O)=O)c1	·	·	25	2.1
C[C@@H]1CN([C@H](C)CO)C(=O)c2cc(NC(=O)Cc3ccccc3)ccc2O[C@@H]1CN(C)S(=O)(=O)c1ccc(Cl)cc1	34	-0.1	-15	-0.9
CC1CCc2c(sc(NC(=O)c3ccc(Cn4cc(Br)cn4)o3)c2C(N)=O)C1 (stereo not drawn)	·	·	-31	3.2
COc1ccc(NC(=O)N(C)C[C@@H]2Oc3ccc(NS(=O)(=O)c4ccc(F)cc4)cc3CC(=O)N([C@H](C)CO)C[C@@H]2C)cc1	-35	-0.23	-3	0.9
COc1ccc(C)cc1NC(=S)NCc1cnn(C)c1	·	·	1	0.9
Cc1ccc(S(=O)(=O)N2CCC(C#N)C(=O)c3ccccc32)cc1 (stereo not drawn)	28	-0.065	-1	-0.7
COCCn1c(C)cc(C=C2C(=O)N(C)C(=S)N(C)C2=O)c1C	-1	-0.19	23	1.1
COc1ccc(CN(C)C[C@H]2Oc3ccc(NC(=O)Nc4ccc(OC)cc4)cc3C(=O)N([C@@H](C)CO)C[C@@H]2C)cc1	·	-0.044	-3	·
C[C@H]1CN([C@@H](C)CO)C(=O)c2cc(NC(=O)C3CC3)ccc2O[C@@H]1CN(C)S(=O)(=O)c1cccs1	-18	0.043	0	0.2
O=C(CC1C(=O)NCCN1C(=O)Nc1ccc(Cl)cc1)Nc1ccc(F)cc1 (stereo not drawn)	·	·	-23	3.5
COc1ccc(NC(=O)N(C)C[C@@H]2Oc3ccc(NC(=O)CCCN(C)C)cc3C(=O)N([C@H](C)CO)C[C@@H]2C)cc1	-30	-0.22	-5	-0.1
Cc1cccc(N(CC(=O)Nc2ccc(Cl)c(Cl)c2)S(C)(=O)=O)c1	·	·	3	-2.4
COc1ccc(NC(=O)Nc2ccc3c(c2)CC(=O)N([C@H](C)CO)C[C@@H](C)[C@H](CN(C)Cc2ccc(C(=O)O)cc2)O3)cc1	?	0.17	-12	2.0

Single values from above.
COc1ccc(NC(=O)Nc2ccc3c(c2)CC(=O)N([C@H](C)CO)C[C@@H](C)[C@H](CN(C)Cc2ccc(C(=O)O)cc2)O3)cc1 @ YB-1 expr inh = 0.17
COCCn1c(C)cc(C=C2C(=O)N(C)C(=S)N(C)C2=O)c1C @ Hedgehog inh = -1
C[C@@H]1CN([C@H](C)CO)C(=O)c2cc(NC(=O)Cc3ccccc3)ccc2O[C@@H]1CN(C)S(=O)(=O)c1ccc(Cl)cc1 @ MITF inh = -15
C[C@H](CO)N1C[C@H](C)[C@H](CN(C)C(=O)Nc2cccc3ccccc23)Oc2ccc(NC(=O)Cc3cn(C)c4ccccc34)cc2C1=O @ PD-1 reverse act = -1.7

(further entries)
SMILES	Hedgehog inh	YB-1 expr inh	MITF inh	PD-1 reverse act
C[C@@H]1CN([C@@H](C)CO)C(=O)c2cccc(NS(C)(=O)=O)c2O[C@@H]1CN(C)Cc1ccc(C(=O)O)cc1	-93	-0.56	-13	2.0
C[C@H]1CN([C@@H](C)CO)C(=O)c2cc(NS(=O)(=O)c3cn(C)cn3)ccc2O[C@@H]1CN(C)Cc1ccc2c(c1)OCO2	-39	0.23	-13	0.9
COc1ccc(NC(=O)Nc2ccc3c(c2)C(=O)N([C@H](C)CO)C[C@@H](C)[C@@H](CN(C)Cc2ccc(-c4ccccc4)cc2)O3)cc1	31	0.072	-2	·
Cc1noc(C)c1NC(=O)N(C)C[C@H]1Oc2c(NS(=O)(=O)c3c(C)noc3C)cccc2C(=O)N([C@H](C)CO)C[C@H]1C	-18	-0.22	0	1.9
C[C@@H]1CN([C@H](C)CO)C(=O)c2cc(NC(=O)Cc3cn(C)c4ccccc34)ccc2O[C@H]1CN(C)S(=O)(=O)c1cccs1	9	-0.038	14	-2.4
Cc1cc(C(F)(F)F)nc(SCC(=O)Nc2ccccc2)n1	·	·	0	1.6
C[C@@H]1CN([C@H](C)CO)C(=O)c2cc(NS(=O)(=O)c3cn(C)cn3)ccc2O[C@H]1CN(C)Cc1ccncc1	·	0.057	-2	1.3
CCOC(=O)C1CCN(C(=O)N2c3ccccc3Sc3ccccc32)CC1	18	-0.4	5	-0.3
Cc1noc(C)c1S(=O)(=O)N(C)C[C@H]1Oc2ccc(NC(=O)Cc3cn(C)c4ccccc34)cc2CC(=O)N([C@H](C)CO)C[C@H]1C	·	0.18	10	·
C[C@H]1CN([C@@H](C)CO)C(=O)c2cc(NC(=O)Nc3ccccc3)ccc2O[C@@H]1CN(C)C	5	0.52	1	1.7
CNC[C@H]1Oc2c(NC(=O)Nc3ccc(OC)cc3)cccc2C(=O)N([C@@H](C)CO)C[C@@H]1C	6	-0.39	-7	-0.9
COc1cc(O[C@@H]2O[C@H](CO[C@H]3OC[C@](O)(CO)[C@H]3O)[C@@H](O)[C@H](O)[C@H]2O)cc(OC)c1OC	1	1.1	-10	2.0
Cc1noc(C)c1S(=O)(=O)N(C)C[C@@H]1OCCCC[C@@H](C)Oc2ccc(NC(=O)CCC(F)(F)F)cc2C(=O)N([C@H](C)CO)C[C@@H]1C	3	0.21	-6	·
Cc1noc(C)c1NC(=O)N(C)C[C@@H]1Oc2ccc(NC(=O)CCC(F)(F)F)cc2C(=O)N([C@H](C)CO)C[C@@H]1C	-9	-0.066	1	-1.3
Cc1noc(C)c1NC(=O)Nc1ccc2c(c1)C(=O)N([C@H](C)CO)C[C@H](C)[C@@H](CN(C)C(=O)Nc1cccc3ccccc13)OCCCC[C@@H](C)O2	-11	0.29	6	·
CN(CC(=O)Nc1ccc([N+](=O)[O-])cc1)S(=O)(=O)c1ccccc1	·	·	8	-0.3
C[C@H](CO)N1C[C@H](C)[C@H](CN(C)S(=O)(=O)c2cccs2)Oc2ccc(NC(=O)Nc3ccc4c(c3)OCO4)cc2C1=O	10	-0.22	-40	0.3
C[C@@H]1CN([C@@H](C)CO)C(=O)Cc2cc(NC(=O)Nc3ccc4c(c3)OCO4)ccc2O[C@@H]1CN(C)C(=O)Nc1ccc(F)cc1	15	0.0088	-2	-0.2
C[C@H](CO)N1C[C@H](C)[C@@H](CN(C)C(=O)Nc2ccc(C(F)(F)F)cc2)Oc2ccc(NC(=O)CCCCCC(=O)Nc3ccccc3N)cc2C1=O	·	0.22	-12	0.5
C[C@H]1CN([C@@H](C)CO)C(=O)c2cc(NS(=O)(=O)c3ccccc3)ccc2O[C@H]1CN(C)Cc1ccc(Oc2ccccc2)cc1	·	-0.54	6	-1.4
S=C(NCC1CCCO1)Nc1cnn(Cc2ccc(Cl)cc2)c1 (stereo not drawn)	·	·	-5	0.1
CN(CC(=O)Nc1ccccc1C(=O)N1CCCC1)S(=O)(=O)c1ccc(Br)cc1	·	·	3	0.2
